# Bioassay records (PubChem BioAssay)
# mIDH1 inhibitor = human IDH1 R132H inhibition; O75874; IDH1-R132H enzyme, NADPH consumption, diaphorase/resazurin fluorescence; Potency, µM (titrated, usually from 76.6 µM), for inactives: top-dose activity change, negative = inhibition, most hits filed as inhibitors; 0.093% of 390,000 active; AID 602179; note: potency is the fitted concentration of half-maximal effect; % is set by controls: 0 for no effect and ±100 for the full control effect; nearly all actives have a fitted effect of over 65% in size
#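 IDH1-R132H (0.5 ug/mL) preincubated 30 min with compound, then NADPH (0.016 mM) and alpha-KG (2 mM) added; 80 min at RT, pH 7.5. Remaining NADPH coupled via diaphorase/resazurin to fluorescence (540/590 nm); concentration-response curves normalized to no-enzyme control.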
# TrxR1 substrate = substrates of rat thioredoxin reductase 1; O89049; purified TrxR1 substrate turnover, NADPH consumption readout; Potency, µM (titrated, usually from 114 µM), without a hit: at the top dose activity change, negative = substrate turnover; 0.01% of 390,000 active; AID 588456; note: potency is the fitted concentration of half-maximal effect; % is set by controls: 0 for no effect and ±100 for the full control effect; nearly all actives have a fitted effect of over 50% in size
#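 Rat TrxR1, dispensed at 90 nM, was prereduced with 400 uM NADPH (final) for 5 min at ~22 deg C, then incubated with compound 15 min before 400 uM selenite. A first-read NADPH fluorescence drop versus no-compound background flagged substrates.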
# D2 antagonist = antagonizes the human D2 dopamine receptor; 2% of 340,000 active; HEK293 TREx D2 cells, calcium flux, dopamine EC80; AID 485344; inhibition, % at 10 µM; P14416; in the data active = inhibition above about 30%; note: 0% is about no effect
#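 Antagonism is scored as inhibition of an EC80 dopamine-evoked calcium signal in a force-coupled, tetracycline-inducible HEK293 T-REx D2 line, with compound present 180 s before agonist.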
# PI4K2A inh = blocks human PI4K2A kinase activity; Q9BTU6; purified PI4K2A, ADP-Glo luminescence, 1 h; active compounds read low; activity change, negative = inhibition, % at 76.9 µM; 0.13% of 420,000 active; in the data active = activity change below about -50%; inconclusive = mostly about -30% to -49%;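 note: -100% = wells without enzyme as full effect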
#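 Compounds are screened against recombinant PI4K2A using PI as substrate and ATP, the latter dispensed at 300 microM. Reactions run one hour at ambient temperature before ADP-Glo detection; full inhibition defined by wells lacking enzyme.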
# D2 ag = activates the human D2 dopamine receptor | P14416 | HEK293 T-REx D2 cells, calcium flux agonist mode | activation, % at 2 µM | 0.53% of 340,000 active | AID 485358;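 active = activation over 3 SD above normal in the single-dose calcium agonist read, cut at about 30% in these data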; note: 0% is about no effect
#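 Calcium-flux readout, 1 cycle/sec over 180 s following compound pin transfer, in inducible HEK293 Trex D2 cells (force-coupled); dopamine controls included. Positive calcium responses during this window marked compounds as potential agonists.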
# USP1 inh = USP1/UAF1 (human) deubiquitinase inhibition; O94782; recombinant USP1/UAF1, Ub-Rhodamine cleavage fluorescence; Potency, µM (top dose mostly 57.1 µM), for inactives: top-dose activity change, negative = inhibition, hits mostly inhibitors; 0.23% of 390,000 active; AID 743255; note: potency is the fitted concentration of half-maximal effect; % is set by controls: 0 for no effect and ±100 for the full control effect; nearly all actives have a fitted effect of over 60% in size; inactives centre near -12
# Target sequence (O94782 whole entry, looked up): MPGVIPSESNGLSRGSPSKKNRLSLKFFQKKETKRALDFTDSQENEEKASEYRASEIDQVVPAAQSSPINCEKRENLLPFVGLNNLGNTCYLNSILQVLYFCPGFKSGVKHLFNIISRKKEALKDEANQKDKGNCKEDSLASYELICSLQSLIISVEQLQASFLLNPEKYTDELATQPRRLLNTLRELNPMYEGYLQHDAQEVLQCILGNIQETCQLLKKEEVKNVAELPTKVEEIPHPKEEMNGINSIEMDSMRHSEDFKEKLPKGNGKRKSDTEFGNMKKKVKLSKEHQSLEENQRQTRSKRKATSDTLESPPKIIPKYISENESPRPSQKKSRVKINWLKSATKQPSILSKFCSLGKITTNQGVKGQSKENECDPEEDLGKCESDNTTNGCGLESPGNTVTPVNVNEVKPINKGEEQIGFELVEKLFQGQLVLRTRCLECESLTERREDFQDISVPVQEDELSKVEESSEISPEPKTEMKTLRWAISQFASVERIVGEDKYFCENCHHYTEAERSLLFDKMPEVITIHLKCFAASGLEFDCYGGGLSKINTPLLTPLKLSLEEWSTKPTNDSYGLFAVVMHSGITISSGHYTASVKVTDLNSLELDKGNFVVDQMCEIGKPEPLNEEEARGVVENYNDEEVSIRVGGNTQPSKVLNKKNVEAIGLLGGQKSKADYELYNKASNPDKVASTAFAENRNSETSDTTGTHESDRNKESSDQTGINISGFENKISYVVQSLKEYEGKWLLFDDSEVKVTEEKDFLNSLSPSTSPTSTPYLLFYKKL
#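 1 nM enzyme complex + cpd, 15 min RT; start with Ub-Rho 150nM final; kinetic fluorescence ex 480/em 540, 6 reads q60 s. Buffer 50mM HEPES pH 7.8, 0.5mM EDTA, 0.1 mg/ml BSA, 1mM TCEP, 0.01% Tween-20.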
# rTrxR1 inhibitor = inhibitors of rat thioredoxin reductase 1 | AID 588453 | 1% of 390,000 active | recombinant rTrxR1, NADPH fluorescence consumption, selenite substrate | Potency, µM (series often up to 114 µM), inactives show at the top dose activity change, negative = inhibition, most hits filed as inhibitors; note: potency is the fitted concentration of half-maximal effect; % is set by controls: 0 for no effect and ±100 for the full control effect; nearly all actives have a fitted effect of over 65% in size
#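 Rat TrxR1 (90 nM in the dispensed reagent) was pre-reduced with 400 uM NADPH for 5 min at room temperature, then incubated with compound for 15 min. After 400 uM selenite was added, NADPH fluorescence (Ex 340/Em 450 nm) was followed for 8 min.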
# * hit, by the source's call; ? = inconclusive; nt = no result given; & = joins results of further samples; [ ] = another dose, or the depositor's remark. Unless noted, calls come from the whole dose curve; as a rule, active = well fitted inhibition curve with a large enough effect; inconclusive = small, poorly fitted or top-dose-only effect; inactive = no such curve, though single readings can be large or run the other way. Not all compounds are listed. The share of hits here may be higher or lower than overall.
no. | Compound | mIDH1 inhibitor | TrxR1 substrate | D2 antagonist | PI4K2A inh | D2 ag | USP1 inh | rTrxR1 inhibitor
1 | c1ccc2c(c1)CSc1sccc1C2=C1CCNCC1 | 4% | -2% | -5 | 1 | 0.1 | -16% | -4%
2 | CC(C)(C)C(=O)OCOC(=O)[C@@H]1N2C(=O)[C@@H](N=CN3CCCCCC3)[C@H]2SC1(C)C | 8% | 0% | 6 | 3 | 0.3 | 14% | 16%
3 | CC(=O)Nc1cccc(O)c1 | 12% | 10% | nt | -9&-1 | nt | -5% | 14%
4 | NS(=O)(=O)Cc1noc2ccccc12 | 2%&-8% | 5%&-5% | nt | 2&1&2 | nt | -19%&-15% | 25%&3%
5 | O=[N+]([O-])c1ccc(O)c2ncccc12 | 13% | ? | -30 | -20&-24 | -1.8 | ? | ?
6 | CC(C)C1CCC(C(=O)N[C@H](Cc2ccccc2)C(=O)O)CC1 (stereo partly specified) | nt | nt | -23 | 0 | 0.1 | nt | nt
7 | Cc1cccc(Nc2ccncc2S(=O)(=O)NC(=O)NC(C)C)c1 | 7% | 7% | -12 | 4&-1 | 0.3 | -30% | 21%
8 | O=P(O)(OCc1ccccc1)OCc1ccccc1 | -4% | 5% | -3 | -2 | -0.9 | -21% | 9%
9 | C[C@@H]1C[C@H]2[C@@H]3CCC4=CC(=O)C=C[C@]4(C)[C@@]3(F)[C@@H](O)C[C@]2(C)[C@@]1(O)C(=O)CO | 9%&13% | -5%&12% | -1&-1 | 0&-1&-1 | 0.3&0.9 | -21%&-25% | -11%&23%
10 | COC(=O)C1=C(C)NC(C)=C(C(=O)OC(C)C)C1c1cccc2nonc12 (stereo unspecified) | -10% | -10% | 1 | -2&1&0 | -1.3 | -17% | ?
11 | CC1CCc2cc(F)cc3c(=O)c(C(=O)O)cn1c23 (stereo unspecified) | -8% | 0% | 14 | 1&0 | 1.4 | -21% | 14%
12 | O=C(O)c1ccccc1S | nt | nt | -1 | -1 | 2.3 | nt | nt
13 | Cc1ncc[nH]1 | -6% | 3% | 7 | -2 | -0.5 | -30% | 1%
14 | CC(=O)OCC(=O)C1(O)CCC2C3CCC4=CC(=O)CCC4(C)C3C(O)CC21C (stereo unspecified) | -2% | 11% | nt | 0 | nt | -15% | 17%
15 | CN1CCN(CC/C=C2/c3ccccc3Sc3ccc(S(=O)(=O)N(C)C)cc32)CC1 | 0% | 8% | 80* | 0 | 0.7 | -22% | 7%&2%
16 | O=C(O)c1c(Cl)cccc1Cl | -11% | 15% | 1 | 2 | 0.1 | -13% | 23%
17 | CCCn1c(=O)[nH]c(=O)c2[nH]cnc21 | -4% | -5%[57.1 µM] | -5 | 2&-2 | -0.4 | -26% | 12%[57.1 µM]
18 | O=c1[nH]c2ccccc2n1CCCN1CCN(C(c2ccccc2)c2ccccc2)CC1 | nt | nt | 84* | 0 | -0.5 | nt | 1%
19 | NCCc1ccn[nH]1 | 13% | 13% | 9 | -2&1 | -1.8 | -22% | 27%
20 | COC(=O)Cc1c[nH]c2ccc(OCC(O)CNC(C)C)cc12 (stereo unspecified) | 12% | 6% | 10 | -1 | 0.2 | -19% | 22%
21 | O=C1Cc2ccccc2N1c1c(Cl)cccc1Cl | 1% | 8%[57.1 µM] | 5 | 0 | -0.1 | -31% | 3%[57.1 µM]
22 | C=C(C)[C@H]1CC=C(C)C(=O)C1 | 4% | 13% | -5 | -4 | 0.8 | -23% | 22%
23 | CC[N+](CC)(CC)CCC(O)(c1ccccc1)C1CCCCC1 (stereo unspecified) | -1% | -7% | 8 | 1 | -0.6 | 12% | -8%
24 | CN1C(=O)CC(c2ccccc2)C1=O (stereo unspecified) | 10% | 4% | nt | 0&-4 | nt | -28% | 16%
25 | COc1cc(C(=S)N2CCOCC2)ccc1O | 1% | 7%[57.1 µM] | 3 | 2&-5 | 0.7 | -4% | 8%[57.1 µM]
26 | Cn1cc(/C=C/c2cc[n+](C)cc2)c2cc(F)ccc21 | 5% | -19%[57.1 µM] | -6 | -1 | -1.0 | 28µM* | 18%[57.1 µM]
27 | Cc1ccc2[nH]cc(/C=C/c3cc[n+](C)cc3)c2c1 | -2% | -14% | 4 | 5 | 4.7 | 28µM* | -7%
28 | CC1(C)S[C@@H]2[C@H](NC(=O)C(NC(=O)N3CCNC3=O)c3ccccc3)C(=O)N2[C@H]1C(=O)O (stereo partly specified) | 9% | 1% | 10 | -5 | 0.8 | -12% | 22%
29 | Cc1cccc(N(C)C(=S)Oc2ccc3ccccc3c2)c1 | 7% | 11% | 10 | 2&-2 | 1.5 | -16% | 36%
30 | CN1CCC(=C2c3ccccc3C=Cc3ccccc32)CC1 | -6% | 5%[57.1 µM] | 77* | -1&4&1 | 3.0 | -30% | 12%[57.1 µM]
31 | CC(=O)OC(C)C[N+](C)(C)C (stereo unspecified) | -12% | -2%[57.1 µM] | 17 | 2&-2&1 | 30 | 19% | -7%[57.1 µM]
32 | CN(C)c1cc(N)c2ccccc2n1 (tested in a mixture with another compound) | 0% | 5% | 1 | 4 | 1.1 | -4% | 17%
33 | c1cnc2c(c1)ccc1cccnc12 | -2%&-10% | 9%[57.1 µM] | -2&20 | -1&-15&3 | -1.1&19 | -11%&-11% | 12%[57.1 µM]
34 | NC12CC3CC(CC(C3)C1)C2 | 13% | 4%[57.1 µM] | -5 | 1&0&-3 | -0.7 | -30% | 29%[57.1 µM]
35 | COc1ccc2cc([C@@H](C)C(=O)O)ccc2c1 | 17% | -3% | -11 | -9 | -0.9 | 7% | 9%
36 | CN1CCCN(C(c2ccccc2)c2ccc(Cl)cc2)CC1 (stereo unspecified) | 12% | 5% | 82* | -4&-4 | 2.2 | -17% | 5%
37 | O=C(O)c1cc(O)c2c(c1)C(=O)c1cccc(O)c1C2=O | 18% | -3% | 11 | -5 | 1.4 | ? | -16%
38 | O=c1c(-c2ccc(O)cc2)coc2cc(O)cc(O)c12 | -3% | 0%[57.1 µM] | -10 | -3&-7&-2 | -1.6 | 11% | 3%[57.1 µM]
39 | Clc1ccc2nsnc2c1NC1=NCCN1 | -8%&1% | 6%[57.1 µM] | 4 | 1&0&-2&-1 | 1.7 | -23%&-13% | 12%[57.1 µM]
40 | Cc1nc2ccccc2n1Cc1ccc(Cl)cc1 | 0% | 6% | -14 | 4&-1 | -0.5 | 5% | 19%
41 | COc1ccc2c(c1)c(CC(=O)O)c(C)n2C(=O)c1ccc(Cl)cc1 | -4% | 7%[57.1 µM] | -12 | 4&2&-4 | -1.4 | -23% | 7%[57.1 µM]
42 | C[C@@H](CN(C)C)CN1c2ccccc2Sc2ccccc21 | nt | nt | nt | -1 | nt | nt | nt
43 | CCCCN(CCCC)CCC(O)c1cc2c(Cl)cc(Cl)cc2c2cc(C(F)(F)F)ccc12 (stereo unspecified) | 13% | 2% | 0 | -1&-5 | 1.1 | -19% | 2%
44 | CC1(C)O[C@@H]2C[C@H]3[C@@H]4CCC5=CC(=O)C=C[C@]5(C)[C@@]4(F)[C@@H](O)C[C@]3(C)[C@]2(C(=O)CO)O1 | -13% | 12% | -14 | -4&1 | -1.9 | -13% | 25%
45 | O=[N+]([O-])c1ccc(F)cc1F | -10% | 3% | -7 | -5 | 0.3 | -3% | 12%
46 | CC12C=CC(=O)C=C1CCC1C2C(=O)CC2(C)C1CCC2(O)C(=O)CO (stereo unspecified) | 1% | 5% | nt | -6 | nt | -18% | 7%
47 | C[C@H]1O[C@@H](O[C@H]2[C@@H](O)C[C@H](O[C@H]3[C@@H](O)C[C@H](O[C@H]4CC[C@@]5(C)[C@H](CC[C@@H]6[C@@H]5C[C@@H](O)[C@]5(C)[C@@H](C7=CC(=O)OC7)CC[C@]65O)C4)O[C@@H]3C)O[C@@H]2C)C[C@H](O)[C@@H]1O | -8% | 8% | -11&-23 | -5 | 0.3&-1.9 | -10% | 17%
48 | CC1=C(C/C=C(\C)CCCC(C)CCCC(C)CCCC(C)C)C(=O)c2ccccc2C1=O (stereo unspecified) | 5% | -8% | -5 | -9 | 2.1 | -29% | ?
49 | Nc1ccc(C(=O)O)cc1 | 6%&-3%&-13% | 10%&0%&3% | -8&5 | -2&3&2&0 | -0.4&0.8 | ? | 22%&4%&15%
50 | C[C@]12CCC(=O)C=C1CC[C@@H]1[C@@H]2C(=O)C[C@@]2(C)[C@H]1CC[C@]2(O)C(=O)CO | -11% | 7%[57.1 µM] | 18 | 0&2&1 | 1.5 | -25% | 16%[57.1 µM]
51 | NC(=O)Nc1ccc(Cl)cc1 | 8% | 7% | -1 | 1 | 0.7 | -19% | 19%
52 | O=C(O)CCSCCC(=O)O | 1% | 11%[57.1 µM] | nt | -7 | nt | -2% | 50%[57.1 µM]
53 | OC[C@H]1OC(O)[C@@H](O)[C@@H](O)[C@@H]1O (stereo partly specified) | 10% | 3% | 8 | -7 | -0.7 | -18% | 1%
